Mtb growth: M. tuberculosis H37Rv growth inhibitors, H37Rv strain (AID 1626) | M. tuberculosis H37Rv growth inhibition; higher % means a stronger effect | 0.95% of 220,000 active | inhibition, % at 10 µM; hits with a dose series show IC50 in µM;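 active means confirmed in a dose series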;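 further: bacteria incubated seven days before Alamar blue readout; 0% = bacteria only wells and 100% = bacteria with antibiotic wells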
Mtb bLac sens: beta-lactam sensitization of Mtb H37Rv; inhibition, % at 25 µM; M. tuberculosis H37Rv growth with meropenem, percent inhibition; hits of this screen are not shown here; AID 434955; 0.27% of 330,000 active;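 active means about 74% or more and at least 40 points above the plate without the antibiotic, then above 30% in a dose series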;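 further: growth measured after seven days incubation then overnight dye step; 0% = bacteria only wells and 100% = bacteria with antibiotic; twin plates without the antibiotic show which effects depend on it; some results filed as inactive read as strong as hits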
Arbovirus anti: antivirals against arbovirus infection. arbovirus infection cell-based antiviral screen. inhibition, % at 10 µM. 0.37% of 200,000 active. AID 1251;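 active means inhibition from about 30%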;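 further: bluetongue infection of BSR cells; cell survival read as ATP light after 72 h; 0% = infected wells without compound and 100% = uninfected wells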
RecA splice inh: blocks M. tuberculosis RecA intein splicing. cell-free RecA intein splicing, fluorescence. AID 2221. P9WHJ3. 0.75% of 290,000 active. inhibition, %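 (about 9 µM by stock and volumes)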; in the data active means inhibition above about 30%;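 further: 0% = vehicle wells and 100% = reference inhibitor control wells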
Target sequence (P9WHJ3 whole entry, looked up, canonical isoform): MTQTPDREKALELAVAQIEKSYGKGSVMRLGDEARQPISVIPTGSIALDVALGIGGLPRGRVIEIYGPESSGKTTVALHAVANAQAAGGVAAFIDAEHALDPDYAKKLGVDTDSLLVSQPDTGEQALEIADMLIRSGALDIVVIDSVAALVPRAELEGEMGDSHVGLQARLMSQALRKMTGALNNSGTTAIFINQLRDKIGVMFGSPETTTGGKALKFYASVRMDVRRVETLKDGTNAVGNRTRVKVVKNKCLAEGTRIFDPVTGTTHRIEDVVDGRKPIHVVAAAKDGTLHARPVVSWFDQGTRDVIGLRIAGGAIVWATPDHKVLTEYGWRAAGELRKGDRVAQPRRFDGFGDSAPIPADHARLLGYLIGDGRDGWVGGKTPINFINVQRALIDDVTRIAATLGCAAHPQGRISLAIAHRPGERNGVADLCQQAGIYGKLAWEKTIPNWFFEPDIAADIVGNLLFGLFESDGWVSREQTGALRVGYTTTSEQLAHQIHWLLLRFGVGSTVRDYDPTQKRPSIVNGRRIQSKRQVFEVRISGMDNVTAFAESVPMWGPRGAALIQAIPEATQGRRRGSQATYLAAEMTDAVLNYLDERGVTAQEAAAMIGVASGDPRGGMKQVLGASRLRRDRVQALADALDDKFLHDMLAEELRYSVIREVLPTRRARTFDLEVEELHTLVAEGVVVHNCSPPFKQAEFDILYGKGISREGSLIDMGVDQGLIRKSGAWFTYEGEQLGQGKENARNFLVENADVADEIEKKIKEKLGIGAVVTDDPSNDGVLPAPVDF
YopH PTP inh: YopH (Yersinia) phosphatase inhibition | fluorescence Ex485/Em525 | inhibition, %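 (about 10 µM by stock and volumes)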 | 0.16% of 140,000 active;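 active means inhibition of 50% or more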;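 further: controls were vehicle for no effect and minimum signal wells for full effect; inactives centre near -20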
Arbovirus anti repeat: second read-out of Arbovirus anti, no call of its own (marks repeat the call); inhibition, %; measured here: 10K subset replicate screen; many hits read low in the repeat;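 first of two repeat runs on a subset; 0% = infected and 100% = uninfected wells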
Starred values were filed as active, the others as inactive; / = not tested or not shown. Not all compounds are listed. The share of hits here may be higher or lower than overall.

SMILES	Mtb growth	Mtb bLac sens	Arbovirus anti	RecA splice inh	YopH PTP inh	others
COc1ccc(C(=O)Nc2cc(C(F)(F)F)ccc2-n2cncn2)cc1	/	4	-3	-0.8	-5
Cn1nc([N+](=O)[O-])nc1Sc1cccc2cccnc12	-5%	4	-23	-0.1	/
O=C(NCCc1ccccn1)c1ccc2nc(Cc3ccccc3F)oc2c1	/	7	/	-0.6	/
CCCCn1c(N)c(N(Cc2ccccc2OC)C(=O)C(C)C)c(=O)[nH]c1=O	/	0	/	-1.8	/
CCOP(=O)(OCC)c1nc(-c2ccc(C)cc2)oc1N1CCOCC1	-2%	3	/	-2.0	-26
CC1Sc2ccc(S(=O)(=O)N3CCC(C(=O)N(C)Cc4ccco4)CC3)cc2NC1=O (configuration not stated)	/	1	/	1.4	/
Cc1onc(-c2ccccc2Cl)c1C(=O)Nc1ccc(S(=O)(=O)N2CCCC2)cc1	3%	0	-1	3.9	-22	Arbovirus anti repeat=-16
O=C(Nc1nc2cc3c(cc2s1)OCCO3)c1cccc(N2C(=O)CCC2=O)c1	-4%	-5	5	-2.0	/
COC1=C/C(=C/c2c(N)n3nc(-c4ccc(C)cc4)sc3nc2=O)C=CC1=O	-1%	/	32*	/	/
O=C(Nc1ccc2c(c1)CCCN2C(=O)c1cccs1)c1ccccc1	/	0	/	3.4	/
Cc1ccsc1CN1CC(=O)N(c2c(C)cccc2C)C1=S	-8%	5	4	4.4	/
O=C(NC(=S)N(Cc1ccccc1)Cc1ccccc1)C1CCCCC1	-12%	0	8	-1.1	-16
O=C(Nc1ccc(S(=O)(=O)N2CCCCC2)cc1)c1ccccc1F	/	2	/	1.7	/
CC(=O)CN1Cc2ccccc2/C1=N\C(=O)Nc1ccccc1	-7%	-3	3	-2.5	-15
CN(CC(=O)Nc1ccc(OC(F)(F)F)cc1)S(=O)(=O)c1cnc[nH]1	/	0	/	2.6	/
Cc1ccc2cccc(N=Cc3c(C)[nH]n(-c4ccccc4)c3=O)c2n1	9%	100	1	6.2	-38
O=C(N/N=C/c1ccco1)c1cc(-c2ccccc2)nc2ccccc12	/	2	/	-0.1	/
O=C(NCc1ccccn1)C1CCN(C(=O)c2cc3sccc3n2Cc2ccc(F)cc2)CC1	0%	4	2	-0.8	/
COc1ccc2[nH]c(C)c(CN3CCC(C)CC3)c(=O)c2c1	1%	-6	-3	-0.1	-39	Arbovirus anti repeat=-3
CCc1nnc(NC(=O)CSc2nc3c(c(=O)n2CC)SC(C)C3)s1 (configuration not stated)	1%	2	3	4.5	-31	Arbovirus anti repeat=7
COc1ccc(Nc2nnc(-c3ccc(C(=O)NCCO)cc3)c3ccccc23)cc1	/	11	/	3.7	/
Cc1ccc(C(=O)OCc2nc3ccsc3c(=O)[nH]2)o1	/	-10	/	0.1	/
Cc1ccc(S(=O)(=O)N(C)C)cc1NC(=O)c1c(-c2c(F)cccc2Cl)noc1C	-7%	-13	/	0.4	/
O=C(Nc1ccc(Cl)c(Cl)c1)Nc1nccs1	7%	78	/	0.5	/
O=[N+]([O-])c1cc(Cl)ccc1Oc1ccc(-c2nnco2)cc1	6%	-4	-11	-5.0	/
CCOC(=O)N1CCC(N2CCCC(C(=O)c3cc(C)c(OC)c(C)c3)C2)CC1 (configuration not stated)	-1%	-4	1	-2.1	/
CCOc1cc(C(=O)Nc2ccccc2F)cc(Br)c1OCC	5%	-6	-5	-0.2	-5
COc1ccc(CN2CCNC(=O)C2CC(=O)NC2CCCCCCC2)cc1OC (configuration not stated)	/	1	/	2.5	/
CCCNC(=O)NC(=O)CSc1nc(C)cs1	8%	-3	-2	-1.0	/
O=C(Nc1cccc(C(F)(F)F)c1)c1ccccc1NC(=O)C1CCCCC1	4%	-8	-4	-0.3	-15
Cc1cc(OCCN2CCOCC2)ccc1Cl	/	-5	/	-0.4	/
O=C1CSC(c2cccnc2)N1c1ccc(Cl)cc1 (configuration not stated)	0%	-14	-1	2.8	/
CCN(CC)c1ccc(NS(=O)(=O)c2ccc(OC)cc2)cc1	7%	-4	20	-2.3	/
CCCn1c(SCC(=O)Nc2c(C)cccc2CC)nnc1C(C)C	2%	-8	1	-0.4	-46
COc1ccc2cc(/C=N/O)c(Cl)nc2c1	45%	46	16	0.5	/
COc1ccccc1NS(=O)(=O)c1ccc(Cl)c(NC(=O)c2sc3cc(Cl)ccc3c2Cl)c1	1%	-9	-13	-5.3	/
Cc1ccc(S(=O)(=O)N2CCCC(CCC(=O)NCc3ccccc3F)C2)s1 (configuration not stated)	-8%	-3	-11	1.8	/
CS(=O)(=O)c1ccc(C(=O)NCc2ccc(F)cc2)cc1	-7%	-3	6	-2.1	/
O=C(c1ccccc1C(=O)N1CCN(c2ccccc2)CC1)N1CCN(c2ccccc2)CC1	0%	-13	-2	-1.1	-10
COc1ccc(-c2nnc(SCC(=O)NC(C)c3ccccc3)o2)cc1OC (configuration not stated)	-1%	-2	-1	0.3	-19	Arbovirus anti repeat=-8
Cn1c(SCC2CCCO2)nnc1-c1ccncc1 (configuration not stated)	-7%	-9	5	-1.5	-45
CCc1cc2cccc(C)c2nc1SCC(=O)c1ccc(NC(C)=O)cc1	15%	6	-3	0.6	-16
COc1ccc(NC(=O)CS(=O)CC(=O)N2CCN(C3CCCC3)CC2)cc1 (configuration not stated)	/	2	/	-1.7	/
O=C(N1CCOCCOc2ccccc2OCCOCC1)C(F)(F)F	/	-3	/	-1.6	/
COc1ccccc1/C=N\NC(=O)c1ccc(COc2ccc(C)c(C)c2)o1	/	0	/	0.3	/

An excerpt from above in order of SMILES length, smallest number first.
SMILES	Mtb growth	Mtb bLac sens	Arbovirus anti	RecA splice inh	YopH PTP inh	others
Cn1c(SCC2CCCO2)nnc1-c1ccncc1 (configuration not stated)	-7%	-9	5	-1.5	-45
O=C(N1CCOCCOc2ccccc2OCCOCC1)C(F)(F)F	/	-3	/	-1.6	/
CCN(CC)c1ccc(NS(=O)(=O)c2ccc(OC)cc2)cc1	7%	-4	20	-2.3	/
CCc1cc2cccc(C)c2nc1SCC(=O)c1ccc(NC(C)=O)cc1	15%	6	-3	0.6	-16

The results go on.
SMILES	Mtb growth	Mtb bLac sens	Arbovirus anti	RecA splice inh	YopH PTP inh	others
CCN1CCC(NC(=O)Nc2ccccc2C(=O)OC)CC1	4%	-2	3	1.8	/
Cc1cc(C)n(-c2ncc(C#N)cn2)n1	-1%	-11	-2	-2.9	/
O=C(N/N=C/c1ccc2c(c1)OCO2)c1ccc(NS(=O)(=O)c2cccs2)cc1	3%	11	-10	2.3	/
CSc1nnc(CSCc2ccc(Cl)cc2Cl)n1-c1ccccc1	2%	8	-35	18	-32
CCOC(=O)c1cc(C(C)C)sc1NC(=O)COC(=O)c1nccnc1N	/	-5	/	1.4	/
CN(C)c1ccc(/C=C(/C(=O)c2ccc(Cl)cc2Cl)n2cncn2)cc1	7%	-5	15	1.8	-7
COC(=O)/C(=C\c1c(OC)cc(OC)cc1OC)C(=O)c1ccc2c(c1)OCO2	-6%	-5	/	-2.1	/
COc1ccc(N(C(=O)CNC(=O)c2ccco2)C(C(=O)NCC2CCCO2)c2ccccc2)c(OC)c1 (configuration not stated)	/	-7	/	1.0	/
CCOC(=O)Cc1csc(NC(=O)CSc2nnc(-c3ccc(NS(=O)(=O)CC)cc3)o2)n1	1%	6	/	0.1	-5
CC(=O)c1cccc(NS(=O)(=O)c2ccc3c(c2)oc(=O)n3C)c1	-7%	-6	0	0.1	-35
COc1ccc2[nH]cc(CCNC(=O)CCC3CCCCC3)c2c1	/	-7	/	0.2	/
CCCCNS(=O)(=O)c1ccc2nc(SCC(=O)Nc3cccc(F)c3)[nH]c2c1	-9%	-4	-9	4.8	-28
CNC(=O)C(=O)Nc1cc2c3c(c1)C(C)C(=O)N3CCC2 (configuration not stated)	/	6	/	-0.3	/
CN(CCc1ccccn1)Cc1ccc(Cl)c(Cl)c1	/	-5	/	1.0	/
CCCCn1c(N)c(N(CCOC)C(=O)c2ccc(Cl)c(S(=O)(=O)N3CCCC3)c2)c(=O)[nH]c1=O	/	-8	/	-4.2	/

4 records picked at random from the list so far:
SMILES	Mtb growth	Mtb bLac sens	Arbovirus anti	RecA splice inh	YopH PTP inh	others
CCCCn1c(N)c(N(CCOC)C(=O)c2ccc(Cl)c(S(=O)(=O)N3CCCC3)c2)c(=O)[nH]c1=O	/	-8	/	-4.2	/
COc1ccc2[nH]cc(CCNC(=O)CCC3CCCCC3)c2c1	/	-7	/	0.2	/
CCOC(=O)c1cc(C(C)C)sc1NC(=O)COC(=O)c1nccnc1N	/	-5	/	1.4	/
CSc1nnc(CSCc2ccc(Cl)cc2Cl)n1-c1ccccc1	2%	8	-35	18	-32

Going on with the list.
SMILES	Mtb growth	Mtb bLac sens	Arbovirus anti	RecA splice inh	YopH PTP inh	others
Cc1ccc(C)c(-n2cc(CN3CCNC(=O)CC3)c(-c3ccccc3)n2)c1	1%	-1	9	3.4	/
O=C(CNC1CCCCC1)NN=C(c1ccccc1)c1ccccc1	-4%	-1	-8	4.3	/
COC(=O)c1[nH]c2c(c1C)C(=O)CC(c1ccc(C)cc1)C2 (configuration not stated)	-4%	-4	-8	1.4	-1
O=C(O)COc1c(F)c(F)c(C(F)(F)F)c(F)c1F	-3%	1	5	0.5	/
O=C(O)CCCC(=O)Nc1ccc(OCc2nc3ccccc3s2)cc1	-2%	8	-7	-0.3	/
CCOc1ccc(C2CC(=O)n3nc(C45CC6CC(CC(C6)C4)C5)nc3S2)cc1OC (configuration not stated)	5%	1	-8	-2.7	-34
COc1ccc(-c2nnc(NC(=O)CS(=O)(=O)c3ccc(F)cc3)o2)cc1	/	17	/	-0.1	/
COc1ccc(C)cc1NC(=O)C(OC(=O)CNC(=O)c1ccc(Br)cc1)c1ccccc1 (configuration not stated)	4%	5	8	-2.0	-10
CC1(C)CC(=O)c2cn3ncnc3nc2C1	-1%	-3	7	-1.0	-14
CCc1ccc2oc(C(=O)N3CCN(c4ccc(OC)cc4)CC3)cc(=O)c2c1	/	2	/	-2.6	/
COc1cc(NCCCC(C)N)c2ncccc2c1 (configuration not stated)	4%	/	-40	88*	42
O=C1CCCc2c1cc(C(=O)Nc1ccc(Br)cn1)c(=O)n2-c1ccccc1	-4%	-4	-4	29	-17
O=C(Nc1ccn(Cc2c(F)c(F)c(F)c(F)c2F)n1)c1cccc(Cn2cc([N+](=O)[O-])cn2)c1	2%	7	-4	-4.8	-13
COC(=O)C1C(=O)c2c([nH]c(C(=O)OC3CCCCC3)c2C)CC1C (configuration not stated)	9%	-6	-4	0.1	-37	Arbovirus anti repeat=-1
COc1cc2c(cc1NC(=O)c1cc(-c3ccncc3)nc3ccc(C)cc13)oc1ccccc12	-2%	-4	-4	0.3	-41
C/C(=N/N1CCN(Cc2ccccc2)CC1)c1ccc(Br)cc1	/	-4	/	-0.7	/
O=[N+]([O-])c1ccc(Cl)c(NC2=NCCCCC2)c1	/	11	/	9.7	/
CCCCOC(=O)Nc1ccccc1C(=O)N1CCCC1	3%	-6	1	-8.2	-27
CC1CN(C(=O)CCC(=O)NCCc2ccccc2)c2ccccc2O1 (configuration not stated)	/	-6	/	5.7	/
COc1ccc(F)cc1C(=O)C1CCCN(C(=O)c2ocnc2C)C1 (configuration not stated)	5%	-6	12	0.9	/
CCOc1ccc(C2NC(=O)C(C#N)=C(S)N2c2ccc(OC)cc2)cc1OC (configuration not stated)	-13%	-11	-2	-0.6	13
CCN1CCN(c2sc(S(C)(=O)=O)nc2S(=O)(=O)c2ccc(Cl)cc2)CC1	/	-4	/	2.1	/
CCOC(=O)C1(Cc2ccc(OC)cc2)CCN(C(=O)c2cc(C)nn2C)CC1	/	1	/	-3.3	/
O=C(CNc1cccc(C(F)(F)F)c1)N/N=C/c1ccccc1C(=O)O	-5%	-2	/	/	/
COC(=O)c1ccc(C2/C(=C(/O)c3ccc(OC)cc3)C(=O)C(=O)N2Cc2ccco2)cc1 (configuration not stated)	/	1	/	-5.3	-36
O=C(O)Cn1c2ccccc2c2ccccc21	-5%	-9	10	-0.6	/
Cc1ccc(C2(CC(=O)Nc3nccs3)CCOC(C(C)C)C2)cc1 (configuration not stated)	3%	2	19	3.5	-10
